From PubChem
HNF4A DNA FP = change in binding of human HNF4 alpha to DNA; P41235; HNF4a-FITC DNA binding, fluorescence polarization, 1 h; activity change, % at 10 µM; 360,000 compounds, 0.3% hits; AID 1224865; in the data active = activity change above about 30%, passing the limit was not always enough;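 note: controls were the assay level and a saturating level of protein; the project sought stronger binding though the title names inhibitors; some compounds called inactive have numbers as strong as hits; positive values seem to mean higher polarization but the record does not say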
Target sequence (P41235 whole entry, looked up): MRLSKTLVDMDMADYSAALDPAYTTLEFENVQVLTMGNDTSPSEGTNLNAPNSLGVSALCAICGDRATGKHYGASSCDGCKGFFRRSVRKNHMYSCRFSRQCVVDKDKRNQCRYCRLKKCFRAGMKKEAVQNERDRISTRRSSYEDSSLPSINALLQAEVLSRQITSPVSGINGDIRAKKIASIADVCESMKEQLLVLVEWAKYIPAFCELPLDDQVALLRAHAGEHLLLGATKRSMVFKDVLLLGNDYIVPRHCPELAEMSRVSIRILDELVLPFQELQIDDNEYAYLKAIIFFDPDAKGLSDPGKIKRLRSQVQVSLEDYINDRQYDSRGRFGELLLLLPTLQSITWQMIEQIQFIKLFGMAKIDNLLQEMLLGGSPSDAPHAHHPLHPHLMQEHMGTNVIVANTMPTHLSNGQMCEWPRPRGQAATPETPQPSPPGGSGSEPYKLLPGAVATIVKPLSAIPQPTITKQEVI
RanGTP-Imp inh = disruptors of Ran-importin-beta complex formation – biochemical, FRET, CFP-Ran, YFP-importin-beta, homogeneous, primary screen; cell-free CFP-Ran/YFP-importin-beta FRET ratio; 300,000 compounds, 1.1% hits; AID 2216; inhibition, % (test concentration not listed);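 active = most replicates above 15%; inconclusive = exactly half above 15%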;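 note: 0% = DMSO wells and 100% = Ran loaded with GDP instead of GTP; wells of about 40 µL received 100 nL stock; the first replicate is given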
ALR H2O2 inh = human ALR oxidase inhibition via reduced H2O2; P55789; purified ALR, DTT oxidation, H2O2 HRP-luminol luminescence; inhibition, % (no concentration beside the values); 290,000 compounds, 3.8% hits; AID 485317;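 active = mean and each replicate at 75% or more; inconclusive = only one of the two met; inactive = neither met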;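 note: stock transfer was 7.5 nL into about 7.5 µL; 0% = neutral wells and 100% = wells with inactivated enzyme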
Target sequence (P55789 whole entry, looked up): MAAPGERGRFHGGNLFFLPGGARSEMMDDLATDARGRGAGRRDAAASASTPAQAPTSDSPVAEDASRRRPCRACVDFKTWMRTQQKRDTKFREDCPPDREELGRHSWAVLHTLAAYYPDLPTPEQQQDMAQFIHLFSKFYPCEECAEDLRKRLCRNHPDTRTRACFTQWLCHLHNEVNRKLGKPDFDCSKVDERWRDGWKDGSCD
Beta2AR agonist = human beta-2 adrenergic receptor agonism by FAP. Am2.2-beta2AR cells, FAP receptor internalization, flow cytometry; reference of the scale not given here. AID 504454. response, % (no concentration beside the values). 340,000 compounds, 0.43% hits;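 active = response above a set limit, near 3 SD of response in nonfluorescent compounds, cut at about 42% in these data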;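 note: stock transfer was 100 nL into about 11 µL; a reference agonist was the positive control; negative values mostly stem from fluorescent compounds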
Calb FLC = affects C. albicans growth with fluconazole; AID 1979; 300,000 compounds, 0.57% hits; growth inhibition, % (concentration not given with the values); C. albicans CaCi-2 (fluconazole-resistant clinical isolate) + fluconazole, Alamar Blue growth, 48 h;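 active = most replicates above 75%; inconclusive = exactly half above 75%; inactive = most below 75%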;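 note: all wells also contain fluconazole at 8 µg/ml as a sub-toxic cotreatment; 0% = median of DMSO wells and 100% = median of geldanamycin control wells; wells of about 8 µL received 7.5 nL stock; the first replicate is given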
LANA-H2B inh = blocks KSHV LANA binding to histone H2A/H2B | Q9QR71 | cell-free LANA-H2A/H2B peptide, fluorescence polarization | inhibition, % (concentration not given with the values) | 320,000 compounds, 0.6% hits | AID 2629; in the data active = inhibition mostly above about 10%, no sharp cut-off; inactive = mostly below about 6.7%;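 note: stock transfer was 7.5 nL into about 10 µL; 0% = median of vehicle wells and 100% = median of positive control wells; one replicate is shown; the record names a cut of 25% in any replicate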
Vif TR-FRET = HIV-1 Vif–A3G interaction blockers – biochemical, TR-FRET, GST-Vif 1-94, biotin-A3G peptide, dose response retest, primary screen (AID 1117319); 260,000 compounds, 0.57% hits; TR-FRET GST-Vif / biotin-A3G peptide binding; higher % means a stronger effect; test concentration not given here; strong numbers were not always called active; one-dose inhibition, %; IC50 in µM for titrated hits;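 active = above the screen mean plus three standard deviations and confirmed in dose response; inconclusive = results disagree or hit not tested in dose response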;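 note: Vif residues 1-94 fused to GST binding biotinylated APOBEC3G peptide 110-148; 0% = full assay without inhibitor and 100% = GST in place of GST-Vif; retest series ran down from 100 µM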
* = called active by the depositor; u = inconclusive; x = no result given; & = joins results of further samples.

Start of the listing, in advance (twelve entries):
SMILES	HNF4A DNA FP	RanGTP-Imp inh	ALR H2O2 inh	Beta2AR agonist	Calb FLC	LANA-H2B inh	Vif TR-FRET
Cc1cc(Cl)ccc1NC(=O)CN1C(=O)NC2(CCCC2)C1=O	0.3	u	x	2	-24	-1.5	x
COc1ccccc1-c1coc2cc(O)cc(O)c2c1=O	-0.2	0.3	16	16	17	-2.8	5%
O=C(Nc1ccc(S(=O)(=O)N2CCCCC2)cc1)c1ccc(CN2CCc3ccccc3C2)cc1	1.8	-0.5	-3	6	1	4.2	-5%
NC(=S)NN=C1CCCCCCCCCC1	-3.4	x	x	0	x	x	-2%
COc1ccc2nc(C)cc(N3CCC(C(N)=O)CC3)c2c1	3.0	-0.9	5	5	10	8.1	-1%
CCOC(=O)c1[nH]c2ccc(Br)cc2c1NC(=O)CCN1CCCC(C)C1 (stereo not given)	x	-3.4	-1	x	-15	-0.1	-8%
O=C(c1ccc(Cl)cc1)N1CCC(O)(CSc2ccccc2)CC1	-0.1	-1.0	-4	9	9	-3.7	-5%
O=C(Nc1ccccc1Cl)ON=C1c2ccccc2-c2ccccc21	-3.2	1.8	-4	18	4	2.1	3%
COc1ccc(N2CCN(C(=O)c3ccc(S(=O)(=O)N4CCOCC4)cc3)CC2)cc1	-1.0	u	41	7	-4	-1.8	10%
COc1ccc(Cn2nnnc2C(c2cc3cccc(C)c3[nH]c2=O)N2CCN(C)CC2)cc1 (stereo not given)	-1.6	-0.7	-10	4	1	-6.0	-8%
COc1ccc(-c2nnc3ccc(SC)nn23)cc1	1.6	1.1	-8	-16	-15	-1.9	6%
CCOC(=O)c1c(C)[nH]c(C(=O)OCC(=O)c2ccccc2)c1C	-2.9	x	4	-5	1	4.9	5%

Main list, previewed entries included:
SMILES	HNF4A DNA FP	RanGTP-Imp inh	ALR H2O2 inh	Beta2AR agonist	Calb FLC	LANA-H2B inh	Vif TR-FRET
Cc1cc(Cl)ccc1NC(=O)CN1C(=O)NC2(CCCC2)C1=O	0.3	u	x	2	-24	-1.5	x
COc1ccccc1-c1coc2cc(O)cc(O)c2c1=O	-0.2	0.3	16	16	17	-2.8	5%
O=C(Nc1ccc(S(=O)(=O)N2CCCCC2)cc1)c1ccc(CN2CCc3ccccc3C2)cc1	1.8	-0.5	-3	6	1	4.2	-5%
NC(=S)NN=C1CCCCCCCCCC1	-3.4	x	x	0	x	x	-2%
COc1ccc2nc(C)cc(N3CCC(C(N)=O)CC3)c2c1	3.0	-0.9	5	5	10	8.1	-1%
CCOC(=O)c1[nH]c2ccc(Br)cc2c1NC(=O)CCN1CCCC(C)C1 (stereo not given)	x	-3.4	-1	x	-15	-0.1	-8%
O=C(c1ccc(Cl)cc1)N1CCC(O)(CSc2ccccc2)CC1	-0.1	-1.0	-4	9	9	-3.7	-5%
O=C(Nc1ccccc1Cl)ON=C1c2ccccc2-c2ccccc21	-3.2	1.8	-4	18	4	2.1	3%
COc1ccc(N2CCN(C(=O)c3ccc(S(=O)(=O)N4CCOCC4)cc3)CC2)cc1	-1.0	u	41	7	-4	-1.8	10%
COc1ccc(Cn2nnnc2C(c2cc3cccc(C)c3[nH]c2=O)N2CCN(C)CC2)cc1 (stereo not given)	-1.6	-0.7	-10	4	1	-6.0	-8%
COc1ccc(-c2nnc3ccc(SC)nn23)cc1	1.6	1.1	-8	-16	-15	-1.9	6%
CCOC(=O)c1c(C)[nH]c(C(=O)OCC(=O)c2ccccc2)c1C	-2.9	x	4	-5	1	4.9	5%
CCCCOc1ccc(S(=O)(=O)n2c(C)nc3ccccc32)cc1	4.1	-0.5	-6	-1	-8	-2.7	6%
COc1ccccc1N(C)S(=O)(=O)c1ccc(C)c(C(=O)NCc2ccccn2)c1	-0.1	x	-1	-6	x	-1.7	-11%
CC(C)C[C@@H](CC#N)N1CCN(CCc2ccccc2)CCC1=O	2.6	-2.2	x	-5	-17	1.5	x
Cc1ccc(NCCC(=O)c2ccc(Cl)c(Cl)c2)cc1	0.0	0.5	2	0	-2	4.0	-5%
O=C(Nc1ccc(OC(F)(F)F)cc1)c1ccccc1-n1cnnn1	2.6	x	-7	0	x	3.9	x
CCOCc1c(C(=O)NC2=Nc3ccccc3NC(CC)=C2C(=O)OCC)oc2ccccc12	8.7	-0.1	-5	10	-18	-0.5	-4%
Cc1ccc(-n2nc(C)c3c2OC(N)=C(C#N)C3c2ccc(F)cc2)cc1 (stereo not given)	1.8	-0.2	42	5	-17	1.3	0%
O=c1/c(=C/c2ccc(O)cc2)sc2nc3cc(Br)cnc3n12	x	-1.7	-20	x	7	-0.4	-4%
COc1ccc(NC(=O)CC2SC(=Nc3ccccc3)NC2=O)cc1 (stereo not given)	9.6	-0.3	x	10	15	1.8	-5%
COc1ccc(OCC(O)CNC(=O)c2sccc2Cl)cc1 (stereo not given)	0.6	1.5	-12	-4	-2	-0.5	3%
N#Cc1c2c(c(Nc3ccc(F)cc3)n3c1nc1ccccc13)CCCC2	3.7	x	x	-46	x	x	-2%
Clc1ccc2nsnc2c1NC1=NCCN1	1.3&3.0	1.4	-6&-1	-20&1	-5	5.1&-1.8	x
COc1ccc(C(C(=O)NC2CCCC2)N(C(=O)c2ccco2)c2ccc3c(c2)OCO3)cc1OC (stereo not given)	-4.2	0.0	-8	-1	-13	-3.9	5%&0%
CC(=O)Nc1ccc(Nc2nc(C)cc(C)n2)cc1	-3.0	0.2	-13	5	21	-1.0	x
Cc1ccc(-n2[nH]c(C)c(/C=N/c3cccc(C)n3)c2=O)cc1	3.6	-0.4	-4	2	4	4.4	2%
O=C(Nc1cccc(S(=O)(=O)NC2=NCCCCC2)c1)c1cc(-c2ccco2)nc2ccccc12	-33	-5.4	-7	-2	1	2.0	u
COCCNC(=O)c1c[nH]c2ccc(S(=O)(=O)Nc3ccc(F)cc3F)cc2c1=O	-4.0	6.2	-3	-6	6	2.4	7%
Cc1cccc(/C=N/NC(=O)Cn2nnnc2N)n1	-0.3	5.2	-8	-2	-2	-8.0	-8%
Cc1cccc(N2CC(C(=O)OCc3ccc([N+](=O)[O-])cc3)CC2=O)c1 (stereo not given)	-0.5	2.4	2	-2	8	-6.6	-9%
COc1nnc(-c2ccc(C)c(S(=O)(=O)N(C)C)c2)c2ccccc12	0.6	4.0	5	-5	-3	2.4	x
COc1ccc(C(CNC(=O)Cn2c(=O)oc3ccccc32)N(C)C)cc1 (stereo not given)	3.8	u	5	15	0	1.8	x
O=C1NC(c2ccccc2)=C(c2nc3ccccc3s2)C(c2ccccc2)N1 (stereo not given)	-5.5	2.0	-2	13	-7	2.2	1%
CCCOC(=O)c1ccc(NC(=O)CSC2=Nc3ccccc3C3CC=NN23)cc1 (stereo not given)	1.8	6.1	97*	15	10	4.8	23%
COCCn1c(SCC(=O)N2CCOCC2)nnc1-c1ccncc1	3.0	2.9	-9	0	2	0.3	-6%
CC(=O)Nc1cccc(NC(=O)CCc2ccccc2)c1	-0.3	1.7	-2	19	-3	8.7	24%
CC(=O)Nc1c(N)c2ccccc2oc1=O	0.5	3.5	-5	2	-12	3.5	0%
COc1ccc(/C=N/NC(=O)c2cccc(C(=O)N/N=C/c3ccc(OC)cc3)n2)cc1	2.6	-0.5	-11	-4	-2	5.8	1%
CC1C2C(C)N(C)C(=O)N(C)C2N(C)C(=O)N1C (stereo not given)	-18	8.5	-3	x	-4	10	17%
CN1CCN(Cc2nc3ccccc3n2C)CC1CCO (stereo not given)	4.0	-3.5	-5	-6	3	-3.3	x
Cc1ccc(Cl)cc1N1CCN(C(=O)Cc2cn(C)c3ccccc23)CC1	-1.9	-0.1	-10	-1	2	8.5	76%
CCCC(C)C(=O)Nc1cc([N+](=O)[O-])ccc1F (stereo not given)	1.1	5.0	35	5	-33	-2.2	-3%
CC1=NN(C(=O)c2ccc(Cn3nc(C)c(Br)c3C)cc2)C(O)(C(F)(F)F)C1 (stereo not given)	0.4	-4.0	-1	-1	-25	2.5	x
C#CCOCCOCCOCCNc1nc(N2CCN(C(=O)[C@H]([C@@H](C)CC)n3cc([C@@H](N)CC(C)C)nn3)CC2)nc(N2CCN(C(=O)[C@H](Cc3ccc(O)cc3)n3cc([C@@H](N)CC(C)C)nn3)CC2)n1	x	u	-35	x	5	3.5	3%
CCC1(C2=CCCCC2)C(=O)NC(=S)N=C1N (stereo not given)	2.6	x	x	-7	x	x	2%
CCNc1ccc(N=Nc2c(C)n(C)n(-c3ccccc3)c2=O)cc1	15	u	99*	1	-2	-1.1	6%
COc1cccc(CSc2ccc(S(=O)(=O)N3CCOCC3)cc2C(=O)NCC2CCCO2)c1OC (stereo not given)	0.5	6.7	1	-4	9	-4.8	-8%
Cn1nc(C(F)(F)F)c(/C=N/OC(=O)c2ccccc2)c1Sc1ccc(Cl)cc1	-4.5	-1.3	2	16	33	-1.4	4%
O=C(c1cccc(S(=O)(=O)Nc2cccc(C(F)(F)F)c2)c1)N1CCOCC1	-4.4	2.4	0	0	1	10	2%
Other results
SMILES	HNF4A DNA FP	RanGTP-Imp inh	ALR H2O2 inh	Beta2AR agonist	Calb FLC	LANA-H2B inh	Vif TR-FRET
CC(C)(C)OC(=O)CNC(=O)c1[nH]cnc1C(=O)NC1CCNCC1	-1.1	x	1	-3	x	-1.2	x
N#Cc1cc2c(nc1SCc1cccc(Cl)c1)CCCCC2	-2.9	-11	-2	-1	-5	10	-17%
CCC(C)(C)n1nnnc1C(c1cccs1)N1CCCCC1 (stereo not given)	0.7	u	-4	-4	-8	-1.5	-3%
O=C(Nc1cc(C(F)(F)F)ccc1Cl)c1cccc(N2C(=O)CCC2=O)c1	-3.4	3.3	-9	-4	-3	-0.6	5%
CC1CCc2sc(C(=O)Nc3nnc(SCc4ccc(F)cc4)s3)cc2C1 (stereo not given)	3.5	-3.9	2	3	2	-8.2	-2%
Cc1cc(OCC(=O)NC2CCN(Cc3ccccc3)CC2)c2c(C)cc(=O)oc2c1	3.9	-1.0	-1	20	-3	6.5	x
Cc1nc(SCc2ccc(Br)cc2)[nH]c(=O)c1C	0.5	x	5	-12	x	6.0	24%
O=C(NC1CCN(C(=S)NCc2ccco2)CC1)c1cccc(F)c1	-3.0	1.2	-6	2	26	-0.3	2%
O=C(OCc1nc2ccccc2s1)c1cccs1	-4.2	-2.1	-6	8	-13	6.1	-3%
CCO[C@H]1OC(C(=O)NCc2ccccc2)=C[C@@H](C(C)(C)C)[C@@H]1CCCO	4.1	4.8	6	-2	1	7.8	x
CN(C)S(=O)(=O)c1cccc(NC(=O)c2ccc3c(c2)OCCO3)c1	3.3	3.8	-29	1	2	-1.6	-4%
COc1cc(NC(=O)CNC(=O)Cn2ccc3ccccc3c2=O)cc(OC)c1OC	5.0	u	10	1	19	0.4	x
N/C(=N\NC(=O)c1ccccc1Cl)c1cc2ccccc2oc1=O	-2.2	-0.9	17	-2	-8	-0.6	x

Arranged by the number under HNF4A DNA FP (lowest first): three of the compounds above
Structure	HNF4A DNA FP
O=C(Nc1cc(C(F)(F)F)ccc1Cl)c1cccc(N2C(=O)CCC2=O)c1	-3.4
CCC(C)(C)n1nnnc1C(c1cccs1)N1CCCCC1 (stereo not given)	0.7
COc1cc(NC(=O)CNC(=O)Cn2ccc3ccccc3c2=O)cc(OC)c1OC	5.0
